eIF4H inh = inhibitors of RNA binding by human eIF4H; eIF4H fluorescence polarization binding assay; AID 2012; actives 0.94% (n = 290,000); inhibition, % at 35 µM; Q15056;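 active means 50% or more with normal probe brightness, or confirmed in later tests; inconclusive means above 50% with abnormal brightness, or retests that disagree; inactive means below 50% or failed in later tests; about a fifth of its hits are not listed in these tables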;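 further: calls also rest on retests at 20 µM and on dose response follow-up; 0% = protein and probe with vehicle and 100% = probe without protein; strong numbers were not always called active; many hits fall short of the cut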
MT1-MMP act inh = MT1-MMP (human) activation inhibition | actives 0.061% (n = 360,000) | HT1080 RFP-PRO-GFP cells, GFP/RFP ratio fluorescence, overnight; percent of plate control window, DMSO zero | P50281 | GFP/RFP ratio change, % at 20 µM | AID 651647;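 active means GFP/RFP ratio change of at least 30% with cell ATP level not reduced by more than half and red fluorescence within 50% of control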; further: strong numbers were not always called active
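Material: RFP-PRO-GFP reporter HT1080 cells. Dosing: single-point 20 µM compound, 1% DMSO. Controls: DMSO and RFP-L50D-GFP cell wells. Timing: cells overnight before dosing, compound overnight, 37 °C, 5% CO2. Measure: GFP/RFP fluorescence ratio.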
PABP polyA inh = blocks human PABP binding to poly(A) RNA; actives 1% (n = 290,000); P11940; fluorescence polarization; inhibition, % at 35 µM; AID 2014;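 active means 50% or more with normal probe brightness, or confirmed in later tests; inconclusive means above 50% with abnormal brightness, or retests that disagree; inactive means below 50% or failed in later tests; about a fifth of its hits are not listed in these tables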;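 further: calls also rest on retests at 20 µM and on dose response follow-up; controls were probe without protein and protein plus probe with vehicle; some compounds called inactive have numbers as strong as hits; many hits fall short of the cut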
Rce1 inhib = inhibitors of yeast Ras-converting enzyme; Q03530; yeast membranes, quenched prenylated peptide cleavage fluorescence; calls only; actives 0.27% (n = 290,000); AID 2563;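 active means fall in fluorescence gain of 50% or more versus controls, with final raw signal at or below 3038400; inconclusive means same 50% fall but final raw signal above 3038400; inactive means fall in fluorescence gain under 50%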;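 further: plate controls were neutral control wells for no effect and wells lacking membranes for full effect; tested at 10 µM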
Target sequence (Q03530 whole entry, looked up): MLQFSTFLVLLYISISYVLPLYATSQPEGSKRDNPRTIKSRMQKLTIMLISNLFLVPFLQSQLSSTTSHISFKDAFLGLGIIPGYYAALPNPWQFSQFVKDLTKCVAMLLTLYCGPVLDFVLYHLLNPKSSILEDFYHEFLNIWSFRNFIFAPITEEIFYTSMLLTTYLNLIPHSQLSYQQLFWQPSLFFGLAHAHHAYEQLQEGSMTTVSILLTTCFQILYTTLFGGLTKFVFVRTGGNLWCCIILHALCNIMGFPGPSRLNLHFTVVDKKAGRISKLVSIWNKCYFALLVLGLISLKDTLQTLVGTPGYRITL
Yeast UUG start = alters start codon recognition fidelity in yeast; actives 0.13% (n = 350,000); S. cerevisiae UUG-firefly luciferase reporter, luminescence/redox ratio; activity score, % at 18.7 µM; AID 602363;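 active means replicate mean at a twofold rise or more, about +100% in these data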;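 further: firefly luciferase made from a UUG start codon reports start codon fidelity; reporter light over untreated wells divided by growth signal over untreated wells; some hits fall short of that in this replicate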
Env fusion inh = blocks HIV Env-driven cell-cell fusion; inhibition, % at 12.3 µM; actives 1.1% (n = 360,000); HeLa-JRFL Env/CEM21 cell fusion, luciferase; AID 651610;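 active means mean replicate inhibition score of at least 50 and every replicate individually at or above 50; inconclusive means only one of the two criteria met; inactive means mean below 50 and not all replicates reaching 50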;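 further: 0% = plate neutral controls and 100% = maraviroc near 300 nM; one replicate is shown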
CSC inhib = cancer stem cell inhibition | cancer stem cell-like cells viability, luminescence | inhibition, % at 7.5 µM | actives 1.1% (n = 300,000) | AID 2717;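 active means mean at 75% or more and at least half the replicates too; inconclusive means mean and replicates disagree; tested in HMLE shEcad cells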;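 further: 0% = median of negative and 100% = median of positive control wells; the first replicate is given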
eIF4H inh retest = further read-out of eIF4H inh, marked with its call; inhibition, %; compound at 20 µM; confirmation average;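 mean of two retest wells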
PABP polyA inh retest = second read-out of PABP polyA inh, no call of its own (marks repeat the call); inhibition, %; compound at 20 µM; confirmation repeats;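 mean of two retest wells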
MT1-MMP act inh RFP = further read-out of MT1-MMP act inh, marked with its call; RFP signal change, %; measured here: RFP expression control read;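 0 = vehicle wells; hits needed this value within 50% of zero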
* marks the source's active call; other numbers are inactive results; i = inactive; ? = inconclusive; · = no result given; & = joins results of further samples.

SMILES	eIF4H inh	MT1-MMP act inh	MT1-MMP act inh RFP	PABP polyA inh	Rce1 inhib	Yeast UUG start	Env fusion inh	CSC inhib	others
COC(=O)c1ccc(CN2C(=O)c3ccccc3C2=O)o1	-5	4	6	-1	i	-3	-6	-10
CC(C)n1c(SCC(=O)NC2CC2)nnc1-c1ccco1	-6	-2	0	-12	i	-14	-5	-5
Cc1oc(CC(C)C)cc1C(N)=O	-8	1	2	7	i	·	-3	6
O=C(COC(=O)CCOc1ccccc1)Nc1cc(S(=O)(=O)N2CCCCC2)ccc1Cl	·	9	2	·	i	0	10	19
O=C(CSCc1ccccc1Br)N/N=C/c1ccc(OCC(=O)N2CCCCC2)cc1	1	-1	-1	-8	i	1	-1	-13
CN1CC(=O)N(CC(=O)Nc2ccc3c(c2)CCC3)C1=O	-5	-3	4	3	i	-36	15	-4
CC(=O)Nc1sc2c(c1C(c1ccccc1)N1CCOCC1)CCCC2 (stereo unspecified)	-15	5	0	5	i	0	·	-4
Cc1cc(C)n(C(=O)CNC(=O)c2ccccc2F)n1	0	1	5	0	i	-7	-8	-15
CC(=O)Nc1ccc(S(=O)(=O)N(C)CCOCc2ccccc2)cc1	5	-1	-5	8	i	-12	·	-15
CCN1CCN(Cc2nc3ccc([N+](=O)[O-])cc3c(=O)n2-c2ccc(OC)cc2OC)CC1	4	-1	4	8	i	·	1	-7
CCCCn1c(SCC(N)=O)nc2sc3c(c2c1=O)CCC3	7	-2	-6	-1	i	-12	15	99*
O=C(CSCc1ccccc1)N1CCN(Cc2ccc3c(c2)OCO3)CC1	0	-14	-3	-16	i	-5	·	-7
CC1(c2nnc(-c3ccc(F)cc3)o2)CC(c2ccc([N+](=O)[O-])cc2)=NO1 (stereo unspecified)	1	5	-3	-2	i	-22	-10	9
C#C[C@]1(O)CC[C@H]2[C@@H]3CCc4cc(OC)ccc4[C@H]3CC[C@@]21C	6	4	-7	-5	i	2	4	2
COc1ccc(Cn2nnnc2C(C(C)C)N2CCN(c3ccccc3OC)CC2)cc1 (stereo unspecified)	8	-2	-15	3	·	-3	·	-1
Cc1cc(N)c(-n2cc3c(=O)n(C)c(=O)n(C)c3c2)cc1C	-6	-4	2	12	i	13	·	9
Cc1cc(C)c(NC(=O)CS(=O)CC(=O)NC2CCCc3ccccc32)c(C)c1 (stereo unspecified)	5	0	3	-1	i	6	-40	-17
CCCN(CC(=O)Nc1ccccc1C)C(=O)c1ccc(S(=O)(=O)N2CCCC2)cc1	·	-3	1	·	i	2	6	-12
COCc1cc(C)nc(Nc2cc(C)ccc2C)c1C#N	2	1	1	0	i	-12	·	-7
CCOc1ccc(Br)cc1S(=O)(=O)N1CCC(C(N)=O)CC1	-3	7	4	-9	i	-4	2	·
COc1ccc(NC(=O)c2cc(S(=O)(=O)N3CCCC3)ccc2OC)cc1	1	1	0	9	i	11	2	19
Cc1ccc2nc(SCC(=O)N3CCOCC3)[nH]c2c1	5	4	5	-2	i	·	·	-20
CCCCCC(=O)Nc1cccc(C2=NOC3(C2)C[C@H](C(N)=O)N(C(=O)CC)C3)c1 (stereo partly specified)	-4	17	8	13	i	8	·	6
COc1ccc(C(NC(=O)c2ccc(=O)[nH]c2)C(=O)Nc2ccc(C(C)C)cc2)cc1 (stereo unspecified)	-8	4	2	8	i	·	6	-11
COc1cc2ccccc2cc1C(=O)N(CCN(C)C)c1nc2c(F)cc(F)cc2s1	-8	-6	-1	2	i	-2	1	5
CCC(C)(C)NC(=O)C(c1cccc(OC)c1OC)N(CCC(C)C)C(=O)CCC(=O)Nc1cc(C)on1 (stereo unspecified)	-2	-6	-4	-2	·	·	-14	2
COc1ccc(C2C(C(C)=O)=C(C)Nc3ncnn32)cc1 (stereo unspecified)	-2	-1	2	10	i	-16	-13	-16
CC(C)Cc1nnc(NC(=O)CCC(=O)N2CCN(Cc3ccccc3)CC2)s1	5	8	-1	2	i	-16	8	-17
C1CCN(CC2CCCCN2)CC1 (stereo unspecified)	·	0	1	·	·	-18	7	·
COc1ccc(-c2coc3c(C)c4oc(=O)c(CCC(=O)O)c(C)c4cc23)cc1	-2	13	-9	51	i	-15	·	·	eIF4H inh retest=-3;PABP polyA inh retest=41
O=C(O)CNS(=O)(=O)c1ccc2c(c1)C(=O)c1cc(S(=O)(=O)NCC(=O)O)ccc1-2	-4	-1	2	17	i	-14	15	-8
COc1ccc(C(=O)/C=C/N(C)C)cc1	1	-8	4	9	i	5	-155	-9
CCCCCN(C(=O)CCCSc1nncs1)c1c(N)n(CCCC)c(=O)[nH]c1=O	1	6	1	1	i	·	5	-8
O=C(NN1CCOCC1)c1cccc(F)c1	·	-1	1	·	i	·	2	-5
CCOC(=O)N1CCN(C(=S)NC(=O)c2ccnn2C)CC1	24	-1	2	-14	i	·	9	12
O=C(CCSc1nnc(-c2ccncc2)o1)Nc1ccccc1	-3	0	2	6	i	-2	-94	3

Random excerpt: 5 entries already listed
SMILES	eIF4H inh	MT1-MMP act inh	MT1-MMP act inh RFP	PABP polyA inh	Rce1 inhib	Yeast UUG start	Env fusion inh	CSC inhib	others
COc1ccc(C2C(C(C)=O)=C(C)Nc3ncnn32)cc1 (stereo unspecified)	-2	-1	2	10	i	-16	-13	-16
COc1ccc(C(=O)/C=C/N(C)C)cc1	1	-8	4	9	i	5	-155	-9
COc1ccc(-c2coc3c(C)c4oc(=O)c(CCC(=O)O)c(C)c4cc23)cc1	-2	13	-9	51	i	-15	·	·	eIF4H inh retest=-3;PABP polyA inh retest=41
COc1cc2ccccc2cc1C(=O)N(CCN(C)C)c1nc2c(F)cc(F)cc2s1	-8	-6	-1	2	i	-2	1	5
C1CCN(CC2CCCCN2)CC1 (stereo unspecified)	·	0	1	·	·	-18	7	·

(listing goes on)
SMILES	eIF4H inh	MT1-MMP act inh	MT1-MMP act inh RFP	PABP polyA inh	Rce1 inhib	Yeast UUG start	Env fusion inh	CSC inhib	others
Cc1ccc(-c2onc(C)c2C)cc1S(=O)(=O)N1CC(C)Oc2ccccc21 (stereo unspecified)	-6	-3	-17	1	i	-24	6	38
Cc1ccc(NC(=O)O/N=C/c2ccc(N(C)C)cc2)cc1	-12	0	0	-11	i	-26	-21	4
COC(=O)c1ccc(-c2c(-c3ccccc3)ncc3cc(F)ccc23)cc1	·	23	-6	·	·	13	-55	38
O=C(c1c(F)c(F)c(F)c(F)c1F)N(Cc1ccccc1)Cc1ccccc1	3	4	4	-6	i	9	-70	-3
COc1ccc(-c2csc3ncnc(NCCCO)c23)cc1	-1	-15	-17	-2	i	-11	50	-8
COc1cc(C(c2sc3nc(C)nn3c2O)N2CCc3ccccc3C2)cc(OC)c1OC (stereo unspecified)	-7	-5	-7	-10	i	-19	-11	11
CCCCNc1nc2c(c(=O)[nH]c(=O)n2C)n1CCCc1ccccc1	·	8	7	·	·	-12	-29	·
Cc1ccc(S(=O)(=O)c2c(C)nn(C(C)(C)C)c2OC(=O)c2ccco2)cc1	5	-4	3	5	i	-8	·	-1
CC1(C)OC(c2ccccc2)=C/C(=C/C=Nc2ccccc2)O1	26	-15	3	-3	i	-14	·	-9
Brc1c(CSc2nncn2-c2ccccc2)nc2ncccn12	-1	2	-3	-5	i	-9	-7	-2
Cc1cc(NC(=O)CCN2C(=O)/C(=C\c3ccccc3)SC2=S)no1	-7	-1	-3	7	i	-10	-14	4
Cc1ccc(S(=O)(=O)N2CCCC2C(=O)NCCc2ccccc2)cc1 (stereo unspecified)	-5	-1	-4	-16	i	·	9	·
C/C(CCN1CCc2nc(-c3ccccc3)c(-c3ccccc3)cc2C1)=N\O[C@H](C)c1cn([C@H](CO)Cc2ccccc2)nn1	11	·	·	-8	i	·	·	-14
Nn1c(COc2cccc(Br)c2)nnc1SCC(=O)NCC1CCCO1 (stereo unspecified)	·	2	1	·	·	-20	24	-20
Cc1ccccc1C(=O)NCc1nnc(SCC(=O)N2CCN(c3ccccc3)CC2)n1C	61	-2	-1	6	i	-8	·	-8	eIF4H inh retest=5;PABP polyA inh retest=8
Cc1csc2c(N3CCN(S(=O)(=O)c4ccc(Cl)cc4)CC3)ncnc12	2	0	-1	1	·	·	1	4
O=C(COC(=O)c1ccc(Br)c(S(=O)(=O)N2CCOCC2)c1)NCC1CCCO1 (stereo unspecified)	2	1	4	4	i	8	·	-4
CCN(CC)CCOC(=O)c1cccc(Cl)c1	0	-3	4	8	i	-18	·	·
CCCn1c(SCC(=O)N2CCN(C(=O)c3ccco3)CC2)nc2ccccc2c1=O	-3	·	·	?	i	·	23	-5
COc1ccc(N2CCN(S(=O)(=O)c3cc4c(cc3C)NC(=O)CO4)CC2)cc1	-7	-2	4	-12	i	-4	0	2
COC(=O)/C(=C\c1cc(OC)c(OC)c(OC)c1)c1nc2ccccc2[nH]1	5	-9	-3	-3	i	·	-13	12
CN(CC(=O)NCc1ccncc1)S(=O)(=O)c1ccccc1	-8	3	2	-1	i	-19	·	-2
Nc1nc(CN2CCN(C(c3ccccc3)c3ccccc3)CC2)nc(Nc2ccccc2)n1	-2	-5	0	-3	i	·	13	-5
CCN(CC)S(=O)(=O)c1ccc(N/N=C(\C)c2ccc3c(c2)OCO3)c([N+](=O)[O-])c1	-2	17	1	-10	i	-6	2	29
COCCNC(=O)c1cccc(Nc2nc(-c3ccccc3)c3cc(Cl)ccc3n2)c1	-6	-10	-16	10	i	·	14	42
C[C@H]1CN([C@@H](C)CO)C(=O)CCCn2nncc2CO[C@@H]1CN(C)Cc1ccncc1	·	-1	0	·	·	-1&1	-2	·
CCN(c1cccc(C)c1)S(=O)(=O)c1ccc(-c2coc(C)n2)cc1	-13	1	1	4	i	-8	4	-2
COc1ccccc1N1CC(C(=O)Nc2nnc(SCc3ccccn3)s2)CC1=O (stereo unspecified)	6	0	5	8	i	-10	-29	-8
Fc1c(F)c(C(F)(F)F)c(F)c(F)c1N/N=C\c1cccs1	-7	-1	-3	0	i	4	-17	26
O=C(NNc1nc2ccccc2s1)Nc1ccc(F)cc1	4	4	8	0	i	·	-11	20
CC(NC(=O)c1ccc(CS(C)(=O)=O)cc1)c1cccc2ccccc12 (stereo unspecified)	13	3	3	3	i	-8	-2	·
COc1ccc(-c2cc(=O)oc3cc(OC(=O)C4CCCCC4)ccc23)cc1	-4	-9	-2	-3	i	·	19	-2
NC(=O)C1CCN(C2=C(Cl)C(=O)c3ccccc3C2=O)CC1	12	6	5	10	i	-13	-141	85*
CCc1cc(/C(Cc2cscn2)=N\O)c(O)cc1O	-8	4	-2	-2	i	-20	·	-5
Nc1c(C(=O)Nc2ccc3c(c2)OCCO3)nnn1Cc1ccccc1	·	1	-2	·	i	-15	-96	34
COc1ccc(-c2cn(CCc3c[nH]c4ccccc34)nn2)cc1	-3	7	-3	3	i	-1	-187	96*
CCOc1ccccc1-c1noc(CCC(=O)NC2CCCCC2)n1	0	-1	0	-1	i	-5	19	-7
C[C@H](CO)NC(=O)[C@H](C)[C@@H]1C[C@@]1(C)[C@@H](NC(=O)OCc1ccccc1)c1ccccc1	5	2	-1	-6	i	-18	-28	-2
COc1ccc(S(=O)(=O)N2CCN(C)CC2)c(C)c1	11	2	8	-11	i	-7	6	-13
COc1ccc2ccccc2c1CN1CCCC(CO)C1 (stereo unspecified)	8	5	6	6	i	0	-26	-14
COc1ccc(-c2nsc(SCC(=O)Nc3cc(C)on3)n2)cc1	9	6	2	-2	·	-7	27	-4

Bioassay records from PubChem BioAssay.
